AID923: qHTS Assay for Allosteric/Competitive Inhibitors of Caspase-1: Spectroscopic Profiling in AFC Spectral Region | compound fluorescence, AFC spectral region (405/520 nm); almost no hit is shown here | Potency, µM (titrated, usually from 57.5 µM), for inactives: at the top dose fluorescence increase, actives largely listed as activators | 75,000 compounds, 1.1% hits | AID 923, 2007; active = well fitted activation curve with a large enough effect; inconclusive = small, poorly fitted or top-dose-only effect;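 note: potency is the fitted concentration of half-maximal effect; 0% is about no effect; scaled to a free AFC standard on each plate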
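Titrations up to 57 uM read every 20 sec for 3 min (405/520 nm) with 50 nM caspase 1 and 5 uM Ac-WEHD-AFC, pH 7.5 HEPES buffer. Fluorescence-vs-time intercept gave baseline, scaled against on-plate AFC standard.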
A647 autofl: qHTS Assay for Spectroscopic Profiling in A647 Spectral Region. 59,000 tested, under 10 active. max dye-equivalent concentration, M. Compound fluorescence, A647 channel (570/671 nm), Tris buffer. AID 592, 2007; active means above 1 µM dye equivalent; inconclusive means 0.1 to 1 µM; inactive means 0.1 µM or less;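 note: values scaled relative to a standard on each plate; highest value over a series up to 38 µM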
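Compounds pinned into 100 mM Tris pH 8.0, 15 min at room temperature, then read with 570 nm excitation/671 nm emission filters. Fluorescence normalized to an on-plate six-point Alexa 647 standard curve, giving dye-equivalent concentration per compound concentration.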
Resorufin autofl: qHTS Assay for Spectroscopic Profiling in Resorufin Spectral Region | Compound fluorescence, resorufin region 547/598 nm, buffer; hits give high values | max dye-equivalent concentration, M | 59,000 compounds, 0.04% hits | AID 588, 2007; active = above 10 nM dye equivalent; inconclusive = 1 to 10 nM; inactive = 1 nM or less; a few of its hits are not listed in these tables; note: highest value over a series up to 38 µM
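Compounds in 100 mM Tris, pH 8.0, incubated 15 min at room temperature, then fluorescence read at 547 nm excitation/598 nm emission. Signal converted to dye-equivalent concentration via an on-plate six-point resorufin standard curve, per compound concentration.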
TSHR ag: qHTS Assay for Agonists of the Thyroid Stimulating Hormone Receptor | HEK293-CNG-TSHR cells (CNG channel as cAMP sensor), membrane potential dye, cAMP | Potency, µM (series often up to 57.1 µM), inactives show top-dose activation, usual class: activators | 73,000 compounds, 0.48% hits | AID 926, 2007; active = well fitted activation curve of enough size with the parental cells flat; inconclusive = any curve in the parental cells; inactive = parental cells flat and receptor cells flat or falling; note: potency is the fitted concentration of half-maximal effect; % of control where 0% means no effect; weak receptor curves with flat parental cells got no call and are not listed
Target sequence (P16473 whole entry, looked up): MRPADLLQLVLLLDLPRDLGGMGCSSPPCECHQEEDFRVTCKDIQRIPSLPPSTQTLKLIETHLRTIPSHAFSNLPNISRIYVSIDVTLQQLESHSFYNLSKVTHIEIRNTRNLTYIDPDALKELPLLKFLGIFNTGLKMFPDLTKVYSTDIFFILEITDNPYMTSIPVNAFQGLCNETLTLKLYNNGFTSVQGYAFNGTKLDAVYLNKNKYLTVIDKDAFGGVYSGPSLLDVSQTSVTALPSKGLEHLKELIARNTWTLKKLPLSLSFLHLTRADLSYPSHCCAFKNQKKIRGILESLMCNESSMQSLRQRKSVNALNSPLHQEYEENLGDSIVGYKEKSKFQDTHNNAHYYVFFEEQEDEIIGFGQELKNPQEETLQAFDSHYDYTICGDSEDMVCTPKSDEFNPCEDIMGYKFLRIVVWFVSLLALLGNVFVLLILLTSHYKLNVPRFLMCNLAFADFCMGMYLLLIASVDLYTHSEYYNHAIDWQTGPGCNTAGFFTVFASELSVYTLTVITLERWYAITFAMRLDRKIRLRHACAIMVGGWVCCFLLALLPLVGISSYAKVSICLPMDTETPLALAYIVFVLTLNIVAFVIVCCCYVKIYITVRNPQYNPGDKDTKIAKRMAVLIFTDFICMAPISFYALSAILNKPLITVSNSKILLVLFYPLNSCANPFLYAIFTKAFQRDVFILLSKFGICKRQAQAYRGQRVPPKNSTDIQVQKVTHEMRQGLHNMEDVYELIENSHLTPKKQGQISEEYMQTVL
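cAMP rise detected as CNG-channel membrane depolarization by fluorescent dye (emission 590 nm), 30 min after compound, following 60 min dye loading containing 100 uM RO 20-1724 at room temperature. Cells: TSHR/CNG HEK 293, with parental CNG HEK 293 as control.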
A488 autofl: qHTS Assay for Spectroscopic Profiling in A488 Spectral Region; compound autofluorescence, A488 spectral region, dye equivalency; hits give high values; max dye equivalency, M; 59,000 compounds, 0.1% hits; active = above 10 nM dye equivalent; inconclusive = 1 to 10 nM; inactive = 1 nM or less; about half of its hits are not listed in these tables;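 note: highest value over a series up to 38 µM; compound alone in buffer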
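Spectroscopic profiling in the A488 region: compounds in pH 8.0 Tris (100 mM), 15 min RT, CCD imaging with 480 nm excitation and 540 nm emission; responses normalized against A488 dye standards.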
An asterisk follows results filed as active; i = inactive; ? = inconclusive; / = no result given; [ ] = remark or other dose. These rows are one share of the data; count on the stated rates, not on these rows.

| Molecule | TSHR ag | A488 autofl | Resorufin autofl | A647 autofl | AID923 |
| --- | --- | --- | --- | --- | --- |
| Cc1ccc(Cn2ncc3c(NCCCN4CCOCC4)ncnc32)cc1 | 5% | i | i | 2.4e-08 | -4.2% |
| COc1cccc(C2=NO[C@@H]3C(=O)N(c4ccc5c(c4)OCCO5)C(=O)[C@H]23)c1OC | 19% | i | i | 4.8e-08 | 0.8% |
| CS(=O)(=O)Nc1cccc(C(=O)CC2(O)C(=O)Nc3ccccc32)c1 (stereo not given) | -7% | i | i | 5.5e-09 | -0.5% |
| Cc1ccccc1-c1nc(CS(=O)(=O)CC(=O)NCCCN2C(C)CCCC2C)c(C)o1 (stereo not given) | 12% | / | / | / | -0.5% |
| Nc1c(NCCN2CCOCC2)c2ccccc2oc1=O | -4%[11.4 µM] | i | i | 2.3e-08 | -2.1% |
| Cc1ccccc1OCc1nc2ccccc2c(=O)n1NC(=O)c1ccco1 | / | i | i | 1.2e-08 | / |
| NC(=O)NC(=O)[C@H]1CCCC[C@@H]1C(=O)O | 0%[11.4 µM] | i | i | 1.2e-08 | 0.8%[11.5 µM] |
| O=C(NCc1cccnc1)c1cccc(S(=O)(=O)N2CCCCC2)c1 | 1% | / | / | / | 6.3% |
| CCNC(=O)N1c2ccc(OC)cc2C(C)=CC1(C)C | 3% | i | i | 1e-09 | 12% |
| Oc1ccc(-c2cccc(-c3ccc(O)cc3)n2)cc1 | -7% | i | i | 3.8e-09 | 1.1% |
| CC1CCCC(C)N1C(=O)C1CC(c2ccc(F)cc2)=NO1 (stereo not given) | 7% | i | i | 5.5e-09 | 12% |
| Cc1ccc(C(C)C)c(OCC(=O)Nc2ccc(Cl)cn2)c1 | ? | i | i | 1e-09 | 0.9% |
| c1coc(CN=C2NC(=NCc3ccco3)c3ccccc32)c1 | -12% | i | i | 1.8e-08 | 2.6% |
| CC(=O)c1ccc(NS(=O)(=O)Cc2ccccc2)cc1 | 9% | / | / | / | 4.5% |
| CSc1ccc(C2C3(C#N)C(N)=NC4(OCCO4)C23C#N)cc1 (stereo not given) | -4% | i | i | 1.9e-08 | 1.4% |
| CC(=C/C=C/C(C)=C/C=C/C=C(C)/C=C/C=C(C)/C=C/C(=O)O)/C=C/C(=O)O | ? | / | / | / | 4.9% |

Part of the list above, set out differently:
Order of results: TSHR ag | A488 autofl | Resorufin autofl | A647 autofl | AID923
> Oc1ccc(-c2cccc(-c3ccc(O)cc3)n2)cc1
    -7% | i | i | 3.8e-09 | 1.1%
> CC1CCCC(C)N1C(=O)C1CC(c2ccc(F)cc2)=NO1 (stereo not given)
    7% | i | i | 5.5e-09 | 12%
> Cc1ccc(C(C)C)c(OCC(=O)Nc2ccc(Cl)cn2)c1
    ? | i | i | 1e-09 | 0.9%
> c1coc(CN=C2NC(=NCc3ccco3)c3ccccc32)c1
    -12% | i | i | 1.8e-08 | 2.6%

(more compounds)
| Molecule | TSHR ag | A488 autofl | Resorufin autofl | A647 autofl | AID923 |
| --- | --- | --- | --- | --- | --- |
| CCOc1cc(C(=O)N2CCOCC2)ccc1OCc1ccccc1 | 5% | i | i | 9.4e-09 | 0.7% |
| O=C(c1cc2ccccn2n1)N1CCN(c2ccccn2)CC1 | 1% | / | / | / | 3.3% |
| Cn1c(SCc2ccc(Br)cc2)nnc1-c1ccncc1 | 12% | i | i | 1e-09 | -0.8% |
| N=C1C(c2ccccc2)=C(O)CN1c1ccc2c(c1)OCO2 | -1% | i | i | 4.8e-09 | 0.4% |
| O=C(CN1C(=O)c2ccccc2S1(=O)=O)NCCSC1CCCCC1 | 3% | i | i | 2e-08 | -2.1% |
| CCCCOCP(=O)(CCCC)COCCCC | 25% | / | / | / | 0.9% |
| COC(=O)[C@H](Cc1ccccc1)NC(=O)[C@]1(C)C[C@H]1[C@H](NC(=O)OCc1ccccc1)c1ccccc1 | ? | / | / | / | -0.8% |
| COc1cc(C(=O)Oc2ccccc2)ccc1OCc1c(C)noc1C | 5% | i | i | 2.1e-08 | -1.4% |
| N[C@@H](Cc1ccc(O)c(I)c1)C(=O)O | / | i | i | 2.6e-08 | -1.4% |
| Cc1cc(=O)oc2cc(OCC(=O)NCCCN3CCOCC3)ccc12 | 3% | i | i | 1.6e-08 | -0.2% |
| O=C(NCc1ccco1)c1noc2c1CCCC2 | -1% | i | i | 2e-08 | 0.7% |
| O=Nc1ccc2oc(=O)ccc2c1 | ? | i | i | 5.2e-08 | -0.2% |
| CC(=O)N1CCc2cc(S(=O)(=O)CCC(=O)NCc3cccs3)ccc21 | 0% | i | i | 1e-09 | 0.1% |
| COc1ccc(-n2c(=O)cnc3cnc(Oc4ccccc4)nc32)cc1 | ? | i | i | 1e-09 | 3.0% |
| CCS(=O)(=O)N1Cc2ccccc2CC1C(=O)N1CCN(c2ccccc2)CC1 (stereo not given) | 14% | i | i | 8.7e-09 | -1.9% |
| CCCCOc1ccccc1C1NC(=O)NC(C)=C1C(=O)OCCOC (stereo not given) | 10% | / | / | / | -1.2% |
| COc1cccc2[nH]c3c(N4CCCC(C)C4)ncnc3c12 (stereo not given) | -74%[inhibitor] | i | i | 5.4e-08 | -0.5% |
| CCOc1ccc2c(c1)c1nnc(SCC(=O)N3CCC(C)CC3)nc1n2C | 5% | i | i | 1.7e-08 | -1.4% |
| Cc1c2c(nc3nc4ccccc4n13)CCCC2=O | 4% | i | i | 1.8e-08 | 3.7% |
| Cc1csc(SCCN2C(=O)c3ccccc3C2=O)n1 | 26%[11.4 µM] | i | i | 1e-09 | 0.4% |
| CS(=O)(=O)N1CCC2(CCN(C(=O)Nc3cccc(F)c3)CC2)CC1 | -1% | i | i | 1.1e-08 | 4.3% |
| Cc1nc(COC(=O)c2ccc(CO)cc2)cs1 | 4% | i | i | 2e-09 | 0.5% |
| Cc1cc(C)cc(OCc2nnc(SCC(=O)c3ccccc3)o2)c1 | ? | i | i | 2.1e-09 | -2.7% |
| CCOc1cc(C(=O)N2CCN(c3ccccc3)CC2)cc(OCC)c1OCC | ? | / | / | / | -0.5% |
| CC(C)OC(=O)CSc1nnc(Cc2ccccc2)n1C | 1% | i | i | 1e-09 | -1.6% |
| N=c1c2c3c(sc2ncn1CCN1CCOCC1)CCCCC3 | 7% | i | i | 1e-09 | 0.8% |
| O=c1c(-c2ccc(F)cc2)nc2cncnc2n1Cc1ccc(F)cc1 | 8% | i | i | 1e-09 | 3.7% |
| CC1CCCC(NC(=O)CN(C)S(=O)(=O)c2cccc3cccnc23)C1C (stereo not given) | 8% | / | / | / | -1.2% |
| COc1ccccc1C(=O)NCCN1CCN(C(=O)c2ccccc2OC)CC1 | -8% | i | i | 2.5e-09 | -0.4% |
| Cc1ccccc1-c1noc(-c2ccc(O)cc2)n1 | -19%[11.4 µM] | / | / | / | 1.9% |
| O=C1CCc2cc(S(=O)(=O)N3CCC(C(=O)Nc4nccs4)CC3)ccc2N1 | -4% | / | / | / | 0.3% |
| Cc1noc(C)c1C(=O)N1CCC2(CCCN(c3ccncc3)C2)CC1 | -3% | i | i | 1.6e-08 | 0.5% |
| C=CCN(C(=O)c1ccccc1)c1ccc(OC)cc1 | / | i | i | 7.4e-09 | -0.6% |
| O=S(=O)(c1ccc(-c2cn3ccccc3n2)cc1)N1CCOCC1 | 10% | / | / | / | 0.6% |
| Cc1ccc(CCNC(=O)C2CCCN(S(=O)(=O)c3cccc4nsnc34)C2)cc1 (stereo not given) | 14% | i | i | 4.2e-09 | -1.1% |
| CC(=O)c1cccc(NC(=O)Nc2cccnc2)c1 | -7% | i | i | 1e-09 | -0.8% |
| O=C1c2ccccc2C(=O)N1CCCn1nnc(-c2ccc(N3CCOCC3)cc2)n1 | -5%[11.4 µM] | i | i | 2.7e-09 | -1.6% |
| Cc1ccsc1/C=c1\sc2ncnn2c1=O | 9% | i | i | 1.7e-09 | -3.4% |
| CCOC(=O)CCCNC(=O)COC(=O)c1cc(C)cc(C)c1 | 2% | i | i | 1e-09 | -2.8% |
| CCCCNC1=C(Br)C(=O)CC(C)(C)C1 | / | i | i | 7.7e-08 | / |
| CCOC(=O)c1c(NC(C)=O)no[n+]1[O-] | 0% | i | i | 7.3e-09 | -1.9% |
| CCC(=O)N1CCN(c2nc(C)nc3sc(C)c(C)c23)CC1 | 1% | i | i | 2.9e-08 | 0.1% |
| Cc1ccc(N2CC(C(=O)NCc3cccs3)CC2=O)cc1 (stereo not given) | 0% | i | i | 5e-09 | 0.7% |
| CCn1c(SCC(=O)n2nc(C)cc2C)nnc1-c1ccc2c(c1)OCO2 | 2% | i | i | 6.2e-09 | -3.7% |
| OCC(CO)(CO)N=Cc1cc(Br)ccc1O | -3% | / | / | / | 13% |
| COc1ccccc1NC(=O)N1CCn2c(nc3ccccc32)C1 | -27% | i | i | 1e-09 | 2.6% |
| CCOc1ccccc1NC(=O)N1CCCC(c2nc3c(nnn3Cc3ccc(C)cc3)c(=O)[nH]2)C1 (stereo not given) | ? | i | i | 1.6e-08 | -0.8% |
| COCCN(C(=O)Cn1nnc2ccccc21)C(C(=O)NC1CCCC1)c1cc(OC)ccc1OC (stereo not given) | ? | i | i | 5.1e-08 | 1.9% |
| CCOC(=O)c1c(NC(=O)c2ccco2)sc2c1CCCCC2 | 23% | / | / | / | 7.4% |
| CC1CCC2C(=O)N3C(CCC(C)[C@@H]3c3ccc(Br)cc3)C(=O)N2C1c1ccc(Br)cc1 (stereo not given in full) | -6%[11.4 µM] | / | / | / | -2.5%[11.5 µM] |
| COc1ccc(OC)c(NC(=O)NC2(C(F)(F)F)Oc3ccccc3O2)c1 | 4% | i | i | 1e-09 | -0.2% |
| O=C(c1cc2ccccc2o1)N1CCCCCC1 | 1% | i | i | 1e-09 | 0.3% |
| Cn1c(NCc2ccccc2)cc(=O)n(C)c1=O | 5% | i | i | 1e-09 | 7.0% |
| COc1ccccc1NC(=O)COc1cccc(-n2cnnn2)c1 | ? | i | i | 1.6e-08 | 0.6% |
| Cc1cc(NC(=O)c2ocnc2C)no1 | 4% | i | i | 1.4e-08 | -1.3% |
| Cc1ccccc1OCC(O)Cn1c(N2CCN(c3ccccc3)CC2)nc2c1c(=O)[nH]c(=O)n2C (stereo not given) | / | i | i | 1e-09 | / |

Further entries.
| Molecule | TSHR ag | A488 autofl | Resorufin autofl | A647 autofl | AID923 |
| --- | --- | --- | --- | --- | --- |
| Cc1ccc(S(=O)(=O)N2CCC(C(=O)NCCCN3CCCCCC3)CC2)cc1 | 4µM* | i | i | 7.8e-09 | -1.1% |
| O=C(Nc1cccnc1)c1noc2c1CCCC2 | -12% | i | i | 1.9e-09 | 0.2% |
| CN(C)c1ccc(CNCCC2(O)CCOC(C)(C)C2)cc1 (stereo not given) | -12% | i | i | 1e-09 | 0.3% |
| O=C(O)CCCC(=O)Nc1ccc(N2CCCC2)cc1 | 2% | i | i | 2.2e-08 | -0.7% |
| COc1ccc(OC)c(NS(=O)(=O)c2ccc3c(c2)n(C)c(=O)n3C)c1 | 14% | i | i | 7.6e-09 | 0.4% |
| O=c1[nH]n(-c2ccccn2)c(=O)c2ccccc12 | -4% | i | i | 1e-09 | -0.4% |
| N[C@@H](Cc1ccccc1)c1nnc(SCc2ccccc2F)o1 | ? | i | i | 1.3e-08 | -0.2% |
| CCOC(=O)Cc1csc(NC(=O)C2CCCN(S(=O)(=O)c3cnc[nH]3)C2)n1 (stereo not given) | 2% | / | / | / | 0.9% |
| COc1ccccc1CC(=O)NCC1CCCO1 (stereo not given) | 8% | / | / | / | 0.1% |
| CCOC(=O)CSc1nc(-c2ccc3c(c2)OCO3)ccc1C#N | / | i | i | 1e-09 | / |

Source: PubChem BioAssay
